# Giardia kill: Giardia lamblia killing | Giardia lamblia trophozoite viability | activity change, % at 7.66 µM, hits read low | 0.15% of 340,000 active | AID 540267; in the data active = activity change below about -80%; inconclusive = between about -30% and that limit;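 note: parasites exposed to compound for two days anaerobically before the ATP read; % is set by controls: 0 for no effect and ±100 for the full control effect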
#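 Each well holds 100 Giardia trophozoites and compound. After two days (48 hrs) at 37 deg C in anaerobic conditions, ATP is quantified by luminescence.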
# Tb PFK block: T. brucei PFK enzyme inhibition | O15648 | T. brucei PFK, ADP-Glo luminescence | Potency, µM (titrated, usually from 57.5 µM), for inactives: top-dose activity, negative = inhibition, most hits filed as inhibitors | 0.17% of 330,000 active | AID 485367;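 note: potency is the fitted concentration of half-maximal effect; 0% = uninhibited 1x PFK enzyme wells and -100% = no-enzyme wells; nearly all actives have a fitted effect of over 60% in size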
# Target sequence (O15648 whole entry, looked up): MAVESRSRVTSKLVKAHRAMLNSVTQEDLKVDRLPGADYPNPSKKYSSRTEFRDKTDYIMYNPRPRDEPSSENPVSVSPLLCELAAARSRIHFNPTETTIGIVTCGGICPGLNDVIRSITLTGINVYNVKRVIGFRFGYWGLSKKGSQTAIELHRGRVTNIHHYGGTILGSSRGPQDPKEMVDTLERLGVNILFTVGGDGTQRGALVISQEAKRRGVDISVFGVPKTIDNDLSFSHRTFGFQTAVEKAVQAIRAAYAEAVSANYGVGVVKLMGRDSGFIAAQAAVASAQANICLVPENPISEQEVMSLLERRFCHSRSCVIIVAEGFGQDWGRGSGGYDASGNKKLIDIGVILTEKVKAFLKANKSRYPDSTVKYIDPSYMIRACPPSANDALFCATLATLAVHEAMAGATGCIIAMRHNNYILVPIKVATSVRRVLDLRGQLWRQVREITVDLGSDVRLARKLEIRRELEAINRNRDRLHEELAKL
#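 Activity is normalized to no-enzyme wells (full inhibition) and 1.25 nM enzyme wells (no inhibition). Reaction: 0.5 mM F6P, 0.1 mM ATP, 45 min RT, ADP-Glo luminescence; concentration-response curves fitted and classed by quality.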
# uPA generation: cell surface uPA generation inhibition; cell surface uPA generation assay, qHTS; Potency, µM (highest dose often 38.3 µM), for the others: at the top dose activity change, negative = inhibition, actives largely listed as inhibitors; 0.31% of 330,000 active; active = well fitted inhibition curve with a large enough effect; inconclusive = small, poorly fitted or top-dose-only effect; inactive = no such curve, though single readings can be large or run the other way; tested in mouse RAW 264.7 cells; note: potency is the fitted concentration of half-maximal effect; % is set by controls: 0 for no effect and ±100 for the full control effect; nearly all actives have a fitted effect of over 55% in size
# FLuc modulator: firefly luciferase modulation, counter-screen for miR-21 project; AID 588342; P08659; 6.9% of 360,000 active; purified FLuc, Km substrates, luminescence inhibition; Potency, µM (series often up to 57.5 µM), inactives show top-dose activity change, negative = inhibition, hits mostly inhibitors;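 note: potency is the fitted concentration of half-maximal effect; plate controls were vehicle for no effect and reference inhibitor for full effect; nearly all actives have a fitted effect of over 55% in size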
#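 Purified P. pyralis luciferase, 10 nM final, with Km-level 10 uM D-luciferin and 10 uM ATP in 50 mM Tris acetate pH 7.5, 10 mM Mg acetate, 0.01% Tween-20, 0.05% BSA; 6-point qHTS titration about 60 µM downward; luminescence read.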
# Rab9 promoter act: activates the Rab9 promoter; Huh7 Rab9 promoter-luciferase reporter, luminescence, 24 h; Potency, µM (highest dose often 9.22 µM), for the others: at the highest dose activation, negative = inhibition, usual class: activators; 2.8% of 320,000 active; AID 485297; note: potency is the fitted concentration of half-maximal effect; % of control where 0% means no effect; nearly all actives have a fitted effect of over 60% in size
#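 Luciferase signal after 10 min detection reagent at ambient indicates Rab9 promoter upregulation; stably transfected Huh7 cells were treated 24 h with compound in DMSO at 37 °C, 5% CO2.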
# ELG1 genotox: induces genotoxicity in HEK293T cells with luciferase-tagged ELG1 | HEK293T ELG1-luciferase reporter, luminescence, 16 h | Potency, µM (highest dose often 46 µM), for the others: top-dose activity change, positive = activation, usual class: activators | 1.3% of 330,000 active | AID 504466; note: potency is the fitted concentration of half-maximal effect; % of control where 0% means no effect; nearly all actives have a fitted effect of over 60% in size
#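 Reporter readout depends on ELG1 protein level, which increases with genetic stress. After 16 hr compound exposure at 37 °C, luciferase activity was quantified using ONE-Glo.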
# VP16 counter: inhibits Gal4-VP16 luciferase reporter, ROR gamma counter-screen; Drosophila S2 Gal4-VP16 UAS-luciferase, luminescence, 20 h; 3.5% of 310,000 active; Potency, µM (top dose mostly 53.6 µM), without a hit: at the top dose activity, negative = inhibition, actives largely listed as inhibitors; AID 2546;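 note: Gal4-VP16 expression switched on by copper sulfate through the metallothionein promoter; potency is the fitted concentration of half-maximal effect; % is set by controls: 0 for no effect and ±100 for the full control effect; nearly all actives have a fitted effect of over 50% in size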
# NPC1 promoter act: activates the NPC1 promoter. AID 485313. 2.4% of 320,000 active. Potency, µM (highest dose often 9.22 µM), for the others: at the top dose activation, hits mostly activators. Huh7 NPC1 promoter luciferase reporter, 24 h;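 note: potency is the fitted concentration of half-maximal effect; % of control where 0% means no effect; nearly all actives have a fitted effect of over 60% in size; reporter is driven by a mutant NPC1 promoter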
#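 Huh7 cells stably carrying NPC1 promoter–luciferase, plated in Opti-MEM with 10% FBS for 2 h, were exposed to compound in DMSO for 24 h at 37 °C; luciferase reagent was added for 10 min and luminescence read.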
# KCNH2 3.1 block: KCNH2 3.1 (human) potassium channel inhibition. U2OS KCNH2 3.1, thallium flux FluxOr; hits give low values. activity change, % (tested at about 1.8 µM). 0.95% of 340,000 active. AID 720553;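 active = maximum activity change below -70%; inconclusive = maximum activity change from -70% to -50%; inactive = maximum activity change above -50%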;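 note: thallium influx rate constant from kinetic fluorescence after stimulation buffer; % is set by controls: 0 for no effect and ±100 for the full control effect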
#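 We transduce U2OS cells with the mutant 3.1 virus, culture them overnight, load FluxOr with Red40 quencher for 45 min, then add stimulation buffer and read kinetically for 2 min to derive a normalized rate constant.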
# Coupling enz: coupling enzyme interference in Giardia aldolase counter-screen. 0.67% of 290,000 active. activity change, negative = inhibition, % at 58.2 µM, hits read low. coupling enzyme system counterscreen, AmpLite Red fluorescence; in the data active = activity change below about -30%; note: % is set by controls: 0 for no effect and ±100 for the full control effect
#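 Coupling enzymes only (glyceraldehyde-3-phosphate) + compound, at 57.5 uM final, 10 min RT; add substrate/coupling/AmpLite Red mix, 20 min RT; fluorescence ex 525/em 598 nm. Actives flag coupling-system interference.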
# * hit, by the source's call; ? = inconclusive; nt = not tested or not shown; [ ] = remark or other dose. Unless noted, calls come from the whole dose curve; as a rule, active = well fitted curve in the direction sought with a large enough effect; inconclusive = small, poorly fitted or top-dose-only effect, or another doubt; inactive = no such curve, though single readings can be large; an effect the other way counts as inactive or inconclusive. An excerpt; the hit share may differ from the screen's.
Structure,FLuc modulator,VP16 counter,KCNH2 3.1 block,NPC1 promoter act,Coupling enz,Rab9 promoter act,Tb PFK block,uPA generation,ELG1 genotox,Giardia kill
CC/C(=C\c1oc2cc3ccccc3cc2[n+]1CC)Nc1ccccc1,3%,33%,-31,-9%,-27,-6%,3%,-8%,-6%,44[activator]
CC1CN(Cc2csc(-c3ccc(Cl)cc3)n2)CC(C)O1 (stereo not given),?,-5%,-24,?,3,?,-4%,-3%,3%,-19
CCn1c2ccccc2c2cc(CN3CCN(S(C)(=O)=O)CC3)ccc21,0%,0%,4,-6%,1,-3%,7%,1%,0%,14
CSc1ccccc1NC(=O)CN(C)CC(=O)Nc1c(F)cccc1F,-1%,1%,2,-3%,-1,-2%,-12%,3%,0%,2
C[C@@H](c1ncncc1F)[C@](O)(Cn1cncn1)c1ccc(F)cc1F,-1%,17%,nt,1%,8,-2%,8%,nt,nt,nt
CCOc1cc(CN2CCN(S(=O)(=O)Cc3ccccc3)CC2)ccc1OC,0%,-21%,5,1%,2,-2%,-1%,-1%,-12%,-28
CCN(CC)c1nc2ccccc2c(N)c1-c1ccccc1,4%,-96%,-16,3%,nt,nt,2%,-12%,-5%,6
C=CCc1cc(Cl)ccc1OCCN1CC(C)OC(C)C1 (stereo not given),2%,14%[10 µM],0,-2%,0,-1%,0%,12%,-7%,-15
CC(=O)c1ccccc1OCCCN1CCCCC1,1%,-4%,-4,0%,1,-7%,7%,7%,0%,3
O=C(O)[C@H](CC(=O)N1C[C@H]2CCCC[C@H]2C1)Cc1ccccc1,nt,5%,nt,nt,nt,nt,nt,nt,nt,nt
COc1ccccc1CN1CCN(C(c2ccccc2)c2ccccc2)CC1,0%,-11%,-34,-2%,0,0%,0%,-8%,-8%,-24
Cc1ccc(CNc2ncc(-c3ccc4c(c3)OCO4)n2C)cc1,?,-1%,-10,1%,-1,-1%,-11%,1%,0%,4
COc1cc(CN2CCN(Cc3ccc(C(F)(F)F)cc3)CC2)cc(OC)c1OC,3%,9%,4,-6%,-4,-10%,-3%,-8%,-5%,2
O=C1CC(=C2c3ccccc3-c3ccccc32)C(=O)N1CCCCN1CCN(c2ccccc2)CC1,3%,-1%,-17,-4%,-2,3%,3%,nt,-9%,-6
COc1ccc(C2=[N+](C)CCn3cccc32)c(OC)c1,10%,-18%,3,-14%,-1,-15%,-6%,-5%,nt,8
Cc1ccc2nc(N3C(=O)C(O)=C(C(=O)c4ccco4)C3c3cccs3)sc2c1 (stereo not given),17µM*,-7%,-3,-3%,-1,16%,2%,-15%,12%,-24
COc1cc(CN(CCN(C)C)Cc2ccccc2)ccc1OCc1ccccc1,0%,-5%,-1,3%,0,-8%,-4%,-7%,-3%,-11
CCCCC[n+]1cccc2c3ccccc3ccc21,4%,-8%,1,-37%[inhibitor],4,-35%[inhibitor],6%,?,-13%,28
Cc1nccn1CCOc1ccc(Cl)cc1,-2%,13%,3,-4%,-1,1%,-3%,-1%,-2%,1
CCOC(=O)Cc1csc(NC(=O)CSc2cc(Cl)ccc2Cl)n1,1%,2%,-18,-2%,0,-8%,-1%,3%,-1%,2

# 2 entries from above, as labelled records.
CSc1ccccc1NC(=O)CN(C)CC(=O)Nc1c(F)cccc1F
  FLuc modulator: -1%
  VP16 counter: 1%
  KCNH2 3.1 block: 2
  NPC1 promoter act: -3%
  Coupling enz: -1
  Rab9 promoter act: -2%
  Tb PFK block: -12%
  uPA generation: 3%
  ELG1 genotox: 0%
  Giardia kill: 2
Cc1nccn1CCOc1ccc(Cl)cc1
  FLuc modulator: -2%
  VP16 counter: 13%
  KCNH2 3.1 block: 3
  NPC1 promoter act: -4%
  Coupling enz: -1
  Rab9 promoter act: 1%
  Tb PFK block: -3%
  uPA generation: -1%
  ELG1 genotox: -2%
  Giardia kill: 1

# Returning to the listing, starting 6 compounds before the break.
Structure,FLuc modulator,VP16 counter,KCNH2 3.1 block,NPC1 promoter act,Coupling enz,Rab9 promoter act,Tb PFK block,uPA generation,ELG1 genotox,Giardia kill
COc1ccc(C2=[N+](C)CCn3cccc32)c(OC)c1,10%,-18%,3,-14%,-1,-15%,-6%,-5%,nt,8
Cc1ccc2nc(N3C(=O)C(O)=C(C(=O)c4ccco4)C3c3cccs3)sc2c1 (stereo not given),17µM*,-7%,-3,-3%,-1,16%,2%,-15%,12%,-24
COc1cc(CN(CCN(C)C)Cc2ccccc2)ccc1OCc1ccccc1,0%,-5%,-1,3%,0,-8%,-4%,-7%,-3%,-11
CCCCC[n+]1cccc2c3ccccc3ccc21,4%,-8%,1,-37%[inhibitor],4,-35%[inhibitor],6%,?,-13%,28
Cc1nccn1CCOc1ccc(Cl)cc1,-2%,13%,3,-4%,-1,1%,-3%,-1%,-2%,1
CCOC(=O)Cc1csc(NC(=O)CSc2cc(Cl)ccc2Cl)n1,1%,2%,-18,-2%,0,-8%,-1%,3%,-1%,2
CC(C)(C)c1ccc(OCCCNC2CCCC2)cc1,-1%,-8%,-32,-2%,0,-11%,-1%,-1%,9%,-8
CC(C)(c1ccccc1)c1ccc(OCCCN2CCNCC2)cc1,-3%,-29%,12,2%,2,-13%,-7%,1%,0%,11
CC[n+]1c(C)n(-c2ccccc2)c2ccc(NC(C)=O)cc21,6%,-27%,-3,-20%,3,-15%,8%,-9%,-8%,-3
Cc1ccc(C(C)C)c(OCCN(C)C)c1,-2%,-14%,-38,0%,-5,11%,-14%,0%,-4%,5
Cc1ccc(OCCOc2cccc3ccc(C)nc23)c([N+](=O)[O-])c1,21µM*,-28%,-10,6%,-6,2%,-6%,5%,0%,-24
O=S(=O)(c1ccc2ccccc2c1)N1CCN(Cc2ccccn2)CC1,3%,-20%,-22,-5%,-3,-6%,-3%,-2%,-1%,-12
O=S(=O)(c1ccc(Cl)c(C(F)(F)F)c1)N1CCN(CC(O)COCC2CCCO2)CC1 (stereo not given),-2%,-13%[0.365 µM],5,1%,2,-2%,-2%,1%,-8%,-7
O=C(N/N=C/c1ccccn1)c1ccc(N/N=C/c2ccccn2)cc1,2.4µM*,-15%,19,23%,0,2.2µM*,2%,-1%,-3%,-8
CCOC(=O)C1CCN(Cc2cccc(OCc3ccccc3)c2)CC1,-1%,-12%,-29,0%,-1,2%,-4%,0%,-2%,20
C[n+]1ccccc1C1CCCC/C1=N\Nc1ccc([N+](=O)[O-])cc1[N+](=O)[O-] (stereo not given),-1%,-6%,8,2%,2,-4%,-4%,3%,-2%,9
